PV pol inh = poliovirus RNA polymerase inhibition; P03300; poliovirus polymerase elongation, fluorescence polarization; active compounds read low; % elongation, % (compound at 16.7 µg/mL); 150,000 tested, 0.66% active; AID 588519; in the data active = % elongation below about 90%; note: some results filed as inactive read as strong as hits
Target sequence (P03300 1749-2209 limits assumed): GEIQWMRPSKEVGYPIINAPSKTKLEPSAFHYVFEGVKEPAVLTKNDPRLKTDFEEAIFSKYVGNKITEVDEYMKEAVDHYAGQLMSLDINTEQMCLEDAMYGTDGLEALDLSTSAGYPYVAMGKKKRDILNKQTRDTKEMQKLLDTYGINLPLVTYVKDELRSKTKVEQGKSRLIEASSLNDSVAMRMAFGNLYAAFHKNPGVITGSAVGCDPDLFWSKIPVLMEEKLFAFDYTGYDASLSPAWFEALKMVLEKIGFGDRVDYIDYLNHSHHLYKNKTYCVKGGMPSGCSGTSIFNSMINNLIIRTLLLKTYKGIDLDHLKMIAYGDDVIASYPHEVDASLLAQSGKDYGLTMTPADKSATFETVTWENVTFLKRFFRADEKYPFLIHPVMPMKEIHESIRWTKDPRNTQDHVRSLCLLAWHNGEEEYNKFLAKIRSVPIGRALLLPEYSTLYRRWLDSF
MenB inh = inhibitors of Mycobacterium tuberculosis MenB enzyme. P9WNP5. MenB enzyme assay, absorbance read-out; some hits fall short of the stated cut. inhibition, %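 (about 12 µg/mL by stock and volumes)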. 100,000 tested, 0.43% active. AID 540299;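 active = mean of two replicates above 30%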;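 note: 0% = no compound and 100% = wells with inactive enzyme; the first replicate is given; strong numbers were not always called active; inactives centre near -10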
Target sequence (P9WNP5 whole entry, looked up): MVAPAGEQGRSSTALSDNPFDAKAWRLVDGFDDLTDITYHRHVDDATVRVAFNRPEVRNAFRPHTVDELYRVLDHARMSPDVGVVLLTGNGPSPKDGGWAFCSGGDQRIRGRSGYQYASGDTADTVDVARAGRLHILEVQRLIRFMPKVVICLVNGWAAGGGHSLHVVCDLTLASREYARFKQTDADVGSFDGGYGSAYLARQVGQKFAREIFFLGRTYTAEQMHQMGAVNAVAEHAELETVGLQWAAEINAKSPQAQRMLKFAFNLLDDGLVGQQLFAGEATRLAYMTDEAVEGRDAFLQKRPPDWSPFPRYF
Mtb MbtI inh = inhibitors of Mycobacterium tuberculosis siderophore enzyme MbtI. purified MbtI enzyme, fluorescence intensity read-out. inhibition, %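 (about 17 µg/mL by stock and volumes)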. 100,000 tested, 0.89% active. AID 493033;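 active = above 50% in both replicates, above 80% if mildly self-fluorescent; inactive = the rest, strongly fluorescent compounds included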;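 note: 0% = mean of negative and 100% = mean of positive controls; one replicate is shown; some compounds called inactive have numbers as strong as hits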
PV pol inh intensity = second read-out of PV pol inh, no call of its own (marks repeat the call); % elongation; measured here: total intensity read-out; formula for this scale not given here;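 total fluorescence in place of polarization; lower means less elongation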
Active calls of the source: *; i = inactive; nt = no result given; & = joins results of further samples.

structure	PV pol inh	PV pol inh intensity	MenB inh	Mtb MbtI inh
Cc1ccc(C)c(N2CCN(CCCNC(=O)C3CCCN(c4ncnc5c4nc4n5CCCCC4)C3)CC2)c1 (configuration not stated)	104	102	-20	-2
C#CCNc1ccccc1	100	103	4	-1
Cc1cc(-n2c(C)cc(/C=C/C(=O)N3CCN(S(=O)(=O)Cc4ccccc4)CC3)c2C)no1	108	110	-32	-11
CCNC(=O)COc1ccc(-c2nnco2)cc1	104	108	11	-2
Cc1cc(C(=O)CN2CCN(Cc3ccc4c(c3)OCO4)CC2)c(C)n1-c1ncn[nH]1	95	106	12	3
COc1cc(SC)ccc1C(=O)Nc1ccccc1C(N)=O	109	103	10	nt
Cc1nnc(NC(=O)CSc2nnc(CNC(=O)C34CC5CC(CC(C5)C3)C4)n2-c2ccccc2)s1	103	97	-9	-9
O=C(O)Cn1nnc(-c2ccccc2)n1	102	102	15	-6
CN(CCC#N)c1ncnc2sccc12	107	114	-15	-2
O=C(c1ccc(Cl)cc1)N1CCN(C(c2ccccc2)c2ccccc2)CC1	110	112	-8	nt
O=C(Nc1ccccc1)C(Cc1nnc(-c2ccc(F)cc2)o1)C(=O)c1ccccc1 (configuration not stated)	104	109	-1	-13
CN(C(=O)Nc1cnccc1C(F)(F)F)C1CCCCC1	101	103	14	-5
O=C(Nc1ccon1)c1cc2ccccc2oc1=O	101	103	-8	-13
CC(C)c1cc(C(C)C)c(N)c(C(C)C)c1	100	95	-9	6
COc1ccc(N2CC(C(=O)N/N=C/c3ccccc3)CC2=O)cc1 (configuration not stated)	103	101	0	2
CCN1CCN(c2c(C(=O)c3ccc(C)c(C)c3)cnc3ccc(C)cc23)CC1	101	97	-51	-4
COc1cccc(N2C(=O)c3ccc(C(=O)Nc4c[nH]c(=O)[nH]c4=O)cc3C2=O)c1	99	102	-7	-1
CNCCC(Oc1ccccc1OC)c1ccccc1 (configuration not stated)	99	100	-4	-11
O=C(OCC(=O)N1CCN(c2ccccc2)CC1)c1ccc(-n2cnnn2)cc1	110	109	-33	-14
O=C(NCCN1CCOCC1)C1CCC(CNS(=O)(=O)c2ccc(Cl)cc2)CC1 (configuration not stated)	99	102	14	-4
COCC(=O)Nc1cc(C)cn(Cc2c(F)cccc2Cl)c1=O	101	101	5	32
O=C(CSCCc1ccccn1)Nc1ccc(Br)cc1F	104	105	-24	-12
COCCN1Cc2cccc(C(=O)N3CCN(c4ccc(F)cc4)CC3)c2C1=O	102	96	-15	4
Cn1cnnc1SCN1C(=O)c2ccccc2C1=O	107	101	-22	nt
CN=C1SC(C(=O)Nc2ccccc2)CC(=O)N1C (configuration not stated)	105	100	-52	-7
Cc1nc(-c2noc(-c3ccc(Cl)cc3)n2)c(C(F)(F)F)o1	99	98	-4	-9
COc1cc(CNC(=O)c2ccccc2SC)cc(OC)c1OC	103	110	-3	nt
C=CCn1c(C23CC4CC(CC(C4)C2)C3)n[nH]c1=S	104	103	-23	21
CCOC(=O)c1ccccc1Oc1c(F)c(F)nc(NCCO)c1F	104	102	-7	8
CC1(NC(=O)N2CCOCC2)CCS(=O)(=O)C1 (configuration not stated)	98	101	-9	3
Cc1ccccc1N1C(=O)CSC1=C(C#N)C#N	99	102	-143	-20
Cc1ccc(SC(=O)c2ccc(OC(F)(F)F)cc2)cc1	106	108	-19	-5
O=C1CC(n2c(=O)oc3ccccc32)C2COC1O2 (configuration not stated)	109	117	-2	nt
CCOC(=O)c1c(C)c(C(=O)N2CCCC2)c(C)n1CC	99	101	-7	-3
CCOC(=O)c1c(P(=O)(N2CCOCC2)N2CCOCC2)noc1N	99	101	41*	0
O=C(c1ccco1)N(Cc1ccco1)C1CCS(=O)(=O)C1 (configuration not stated)	102	105	-63	-31
CCc1nnc(NC(=O)c2sc3nc4ccc(OC)cc4cc3c2N)s1	101	110	-49	-10
O=C(COc1ccc(Cl)cc1)NCc1n[nH]c(=S)n1-c1cccc(Cl)c1	99	92	-57	42
Cc1cc(NCCN2CCCCC2)c2ccc3ccccc3c2n1	69*	84*	-1	i
Cc1cc(=O)oc2cc(OCC(O)CN(C)C3CCCCC3)ccc12 (configuration not stated)	103	108	2	106
S=c1[nH]c2ccccc2n1CCOc1ccccc1	99	97	-72	95*
CCCNS(=O)(=O)c1ccc2c(c1)CCCN2C(C)=O	101	104	7	3
Cc1ccc(-c2cc(C(=O)N3CCC(C(N)=O)CC3)c3ccccc3n2)cc1	101	99	nt	-20
Cn1nnnc1SCC(=O)NC(=O)Nc1ccc2c(c1)OCCO2	102	104	-21	-6
Cc1nn(-c2ccccc2)c(C)c1/C=C/C(=O)OCC(=O)c1cccs1	100	98	-39	-3
Cc1ccc(Nc2nc(/N=C/N(C)C)n[nH]2)cc1C	106	102	-5	nt
COc1ccc(-c2nc(SCC(=O)CSc3n[nH]c(-c4ccc(OC)cc4)n3)n[nH]2)cc1	103	102	3	nt
O=C1NC(=Nc2ccc(O)cc2)S/C1=C\c1cccc(O)c1	103	103	-75	-8
Cc1cnc(NS(=O)(=O)c2cccc3nonc23)c(Br)c1	100	98	-7	10
O=S(=O)(Nc1ccc(O)c(Sc2nc3ccccc3s2)c1)c1ccccc1	101	97	-16	9
CC1=C(C(=O)Nc2ccc(C)cc2)C2(CCCCC2)OC1=O	103	103	-19	0
O=C(O)CCNc1ncnc2ccc(Br)cc12	106	102	-12	-8
S=C(NCCN1CCOCC1)NC1CCSc2ccccc21 (configuration not stated)	107	110	-20	9
COC(=O)Cc1[nH]n(-c2ccccc2)c(=O)c1C(C)=NCc1cccnc1	104	102	10	19
Cc1ccc(-c2csc3ncnc(Sc4nnc(CN5CCCCCC5=O)o4)c23)cc1	97	97	-11	0
O=C(CC1OCCN(Cc2ccccc2)C1=O)Nc1ccc(Br)cc1Br (configuration not stated)	104	107	-22	-1
CN(C)c1ccc(C2NC(=S)NC3=C2N2CCC3CC2)cc1 (configuration not stated)	101	101	2	10
Cc1cccn2c(=O)cc(CN3CCN(S(=O)(=O)c4ccc5c(c4)OCCCO5)CC3)nc12	99	107	-7	-19
C=CCn1c(-c2ccccc2)nn(CNc2ccccc2Cl)c1=S	106	113	-16	nt
O=C(Oc1ccccc1)c1cn(-c2ccccc2)nc1-c1cccnc1	105	99	nt	1

Additional records follow:
structure	PV pol inh	PV pol inh intensity	MenB inh	Mtb MbtI inh
O=C(NCc1ccccc1Cl)C1COc2ccccc2O1 (configuration not stated)	102	102	-1	-9
O=C1C(c2ccc(I)cc2)=C(O)c2ccccc21	102	109	-15	6
CN(C(=O)c1cc2c(Cl)nc3ccccc3c2s1)c1ccccc1	99	96	-10	-3
CN(Cn1c(=O)oc2cc(Br)ccc21)C1CCCCC1	99	102	-5	4
Cc1nn(CC(C)C)c(Cl)c1C(=O)N1CCCc2ccccc21	105	105	-2	-6
COCC(C)NC(=O)Nc1c[nH]c2ccccc12 (configuration not stated)	105	105	0	-13
COc1ccc(Nc2ncnc3ccccc23)cc1	103	105	-2	2
COC(=O)c1sccc1NC(=S)N1CCCC1	101	102	-14	2
C1CCC(N=C(NC2C3CC4CC(C3)CC2C4)N2CCOCC2)CC1 (configuration not stated)	98	89	-5	nt
O=C1NCCNC1Cc1ccc2ccccc2n1 (configuration not stated)	105	102	-105	6
CCCCOC(=O)c1ccc(NC(=O)c2cnccn2)cc1	102	102	-1	-2
CCN1CCSc2ccc(C(=O)Nc3c(F)c(F)c(F)c(F)c3F)cc21	99	102	-5	83
COc1cccc(-c2cc(C(=O)NCC(C)C)no2)c1	103	105	-10	-9
Cn1cc(I)c(C(=O)n2cc(Br)cn2)n1	101	101	-5	7
CCc1ccccc1NC(=O)Cc1ccc(Br)cc1	101	102	-5	nt
CS(=O)(=O)N(CC(=O)N1CCc2ccccc2C1)c1ccccc1	102	99	1	9
CCN(CC)S(=O)(=O)c1cccc(C(=O)Oc2cccc(-c3cnc4ccccc4n3)c2)c1	100	104	-6	nt
CSc1ccc(Cl)c(C(=O)OCC(=O)N(C)c2ccccc2)c1	102	103	nt	2
C=CCNC(=O)Nc1c[nH]c2ccccc2c1=O	104	99	-1	90
Clc1ccccc1-c1nnc(C(c2ccccc2)N2CCC3(CC2)OCCO3)o1 (configuration not stated)	100	103	6	-12
CSc1ccc(CCNC(=O)C2CCCN(c3ncnc4c3nc3n4CCCCC3)C2)cc1 (configuration not stated)	103	102	-6	-8
NC(CO)C12CC3CC(CC(C3)C1)C2 (configuration not stated)	103	93	nt	2
COc1ccc(OC)c(NC(=O)CC2C(=O)NCCN2C(=O)C(F)(F)F)c1 (configuration not stated)	98&101	103&103	4	-3
CSc1sc(C(=O)NC(=O)NCc2cccnc2)c(C)c1-c1ccon1	103	105	-13	-17
CC(=O)Nc1ccc(NC(=O)COC(=O)C2CCCCC2)cc1	102	105	nt	-3
Cc1c(CCNS(=O)(=O)c2ccc(Br)cc2)c2ccccc2n1Cc1ccccc1	101	104	-32	-8
C[C@]12CC=C(C#N)[C@@]1(C)CC=C2C#N	101	103	13	1
COc1ccc(C2C3=C(CC(C)(C)CC3=O)N(C)C3=C2C(=O)CC(C)(C)C3)cc1	98	101	-103	-10
CCOc1cc(C(=O)NCc2ccc3c(c2)n(C)c(=O)n3C)cc(OCC)c1OCC	104	101	-30	-8
Cc1cccc(C(=O)OCC(=O)NC2CCCC(C)C2C)c1 (configuration not stated)	102	104	nt	-4
Cc1ccc(C2C(C#N)=C(N)OC(C3CC3)=C2C#N)cc1 (configuration not stated)	103	99	3	-5
CCOC(=O)Cn1nc[n+]2[nH]c(C)cc(=O)c12	102	109	44	13
Cc1cccc(OCC(=O)Nc2c(C(=O)Nc3cccc(F)c3)oc3ccccc23)c1	102	108	-13	-9
CCS(=O)(=O)n1nc(-c2ccccc2)cc1N	102	98	-2	1
O=C(O)c1ccc(Cn2cccn2)o1	102	98	7	8
CCCCNC(=O)c1sc2nc(C)cc(C)c2c1-n1cccc1	102	104	-3	-10
N[C@@H](C(=O)N[C@@H]1C(=O)N2C(C(=O)O)=C(Cl)CS[C@H]12)c1ccccc1	100&94&100	99&90&100	-7&2&3	-2&30&1
CNc1nc(-c2cc(C)n(-c3cccc(C(F)(F)F)c3)c2C)cs1	108	109	-14	5
CC1CCOP(=S)(N(C)C)O1 (configuration not stated)	105	104	2	0
Cc1ccc(S(=O)(=O)N(C)C(C)C(O)c2ccccc2)cc1 (configuration not stated)	103	105	nt	-12
C/C(=N\NC(=O)C1=NNC(=O)C1C)c1cccs1 (configuration not stated)	101	101	4	10
CCc1ccc(Nc2cc(C(=O)NCC(OC)OC)c3ccccc3n2)cc1	103	106	-37	43
CCOC(=O)c1sc(N2N=C(C)CC2=O)nc1C	103	102	-70	6
Cc1ccc2nc(-c3ccccc3)cc(C(=O)Nc3ccccc3)c2c1	104	100	9	10
Cc1cccc2sc(NC(=O)CN3CSCC3=O)nc12	104	104	0	-1
CC(C)(C)C1(C)OC(C(N)=O)C(C(N)=O)O1 (configuration not stated)	101	100	-8	-3
CCn1c(=O)c(=O)[nH]c2cc(C(=O)Nc3cc(Cl)c(N)c(Cl)c3)ccc21	101	109	16	5
CCN(CC)C(=O)C[n+]1cccc(C(N)=O)c1	102	105	12	-1
CN1C(=O)/C(=N\N=C\c2c(O)[nH]c(=O)[nH]c2=O)c2ccccc21	102	94	-54	0
CC1CN=C(NCc2cccnc2)S1 (configuration not stated)	103	103	-12	0
Cn1c(COc2ccc(Cl)cc2)nnc1SCCN1C(=O)c2ccccc2S1(=O)=O	nt	nt	-31	12
Cc1nc(C)c(-c2ccn[nH]2)s1	102	101	3	8
CN1CCN(CCOCCOc2ccc(Cl)c(Cl)c2)CC1	101	103	-9	-2
c1ccc(-c2ccc(C(c3ccccc3)n3ccnc3)cc2)cc1 (configuration not stated)	100	104	3	-13
Cc1ccc(CNC(=O)c2ccc(Cl)c(S(N)(=O)=O)c2)n1C	102	122	9	0

From PubChem BioAssay

Random draw from the library (roughly 1.7% active in at least one column).
